# TexasRed fluor: counter-screen for TRb-SRC2 inhibitors: fluorescence interference | TRb/SRC2 Texas Red total fluorescence interference | Potency, µM (series often up to 106 µM), for inactives: at the highest dose fluorescence change, negative = quenching | hit rate 0.29% among 280,000 | AID 1479; active = well fitted curve in either direction with a large enough effect; inconclusive = small, poorly fitted or top-dose-only effect
#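 Flags fluorescent or light-absorbing compounds by total fluorescence, S + 2P, at 555 nm excitation and 632 nm emission. Mixture: 20 nM Texas Red SRC2 peptide, 0.6 uM human TRb LBD, 1 uM T3, 5% DMSO; compound exposure 5 h at ambient temperature.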
# Tau fibril FP: blocks human tau fibril formation measured by polarization; K18 P301L tau heparin fibrillization, Alexa594 FP, 6 h; Potency, µM (doses to about 57.7 µM), for the others: at the highest dose activity, negative = inhibition, most hits filed as inhibitors; hit rate 0.39% among 280,000; AID 1468; also: nearly all actives have a fitted effect of over 55% in size
# Target sequence (P10636 561-689 P618L limits assumed): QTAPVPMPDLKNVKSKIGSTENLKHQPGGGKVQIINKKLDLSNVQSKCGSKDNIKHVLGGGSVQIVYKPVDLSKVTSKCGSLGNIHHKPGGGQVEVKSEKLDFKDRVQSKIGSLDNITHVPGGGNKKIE
#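 Compound effects on tau fibrillization are measured by Alexa 594 fluorescence polarization (ex 555, em 632 nm). K18 P301L tau is used at 15 uM with 0.24 uM labeled tracer, and 20 uM heparin induces aggregation over 6 hr at 37 C.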
# RECQ1 helicase: inhibitors of human RECQ1 DNA helicase; RECQ1 DNA unwinding, red fluorescence kinetic read; Potency, µM (highest dose often 57.3 µM), for inactives: at the highest dose activity, negative = inhibition, actives largely listed as inhibitors; hit rate 0.54% among 240,000; AID 2549;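 also: plate controls were vehicle for no effect and no enzyme for full effect; nearly all actives have a fitted effect of over 30% in size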
#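 RECQ1T1 50 nM; forked duplex (20 bp + 30-nt ss tails) 200 nM, ATP 2 mM final; pH 8.0, 2 mM MgCl2, 2.5 ug/ml poly(dI-dC); 15 min compound preincubation; discontinuous kinetic read over 2 h at RT.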
# Tau fibril ThT: inhibitors of human tau fibril formation, thioflavin T binding; recombinant tau K18 P301L, heparin-induced fibrillization, ThT fluorescence; Potency, µM (series often up to 57.4 µM), without a hit: at the top dose activity, negative = inhibition, usual class: inhibitors; hit rate 2.1% among 270,000; AID 1460; also: nearly all actives have a fitted effect of over 55% in size
#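 Using a mix of unlabeled (15 uM) and Alexa 594-labeled (0.24 uM) tau K18 P301L, heparin-triggered fibrillization over 6 hr at 37 C was scored by ThT fluorescence.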
# Tau fluor cs: counter-screen for tau fibril formation inhibitors | tau K18 P301L Alexa594 fluorescence, heparin fibrillization | Potency, µM (highest dose often 57.7 µM), inactives show top-dose activity change, negative = decrease | hit rate 0.93% among 280,000 | AID 1463; also: nearly all actives have a fitted effect of over 55% in size
#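 Human tau K18 P301L (15 uM unlabeled, 0.24 uM Alexa 594-labeled) in 100 mM sodium acetate pH 7 with 20 uM heparin, 6 hr at 37 C. ThT 30 uM added, 1 hr ambient; Alexa 594 FP and total fluorescence read at 555/632 nm.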
# * = called active by the depositor; i = inactive; ? = inconclusive; · = not tested or not shown; & = joins results of further samples; [ ] = dose if it differs, or a comment. Unless noted, calls follow the shape of the dose curve; as a rule, active = well fitted curve in the direction sought with a large enough effect; inconclusive = small, poorly fitted or top-dose-only effect, or another doubt; inactive = no such curve, though single readings can be large; an effect the other way counts as inactive or inconclusive. Unless noted, % is scaled to controls: 0 for no effect and ±100 for the full control effect; potency is read from the fitted curve at half-maximal effect. An excerpt; rates above refer to the full screens.
SMILES,TexasRed fluor,Tau fibril FP,RECQ1 helicase,Tau fibril ThT,Tau fluor cs
CC[C@@H]1CN2CCc3cc(OC)c(OC)cc3[C@@H]2C[C@@H]1C[C@H]1NCCc2cc(OC)c(OC)cc21,0.3%,-2.2%,2.3%,-0.1%,-0.9%
CCOC(=O)c1cncn1[C@@H](C)c1ccccc1,0.1%[53 µM],·,i,·,·
Clc1ccc(C(Cl)(Cl)Cl)c(Cl)c1,-2.3%,·,-11.1%,·,·
Cc1ccc(NC(=O)COC(=O)/C=C/c2ccco2)cc1S(=O)(=O)N(C)C,4.5%,-9.6%,1.6%,?,?
CC[C@H]1CN2CCc3cc(OC)c(OC)cc3[C@@H]2C[C@@H]1C[C@H]1NCCc2cc(OC)c(OC)cc21,-2.0%&-0.9%,-7.0%&-3.7%,21.2%&2.4%,-9.2%&-6.1%,-9.4%&-5.8%
CNC(C)C1CC[C@H](N)[C@@H](OC2C(N)C[C@H](N)[C@@H](OC3OC[C@](C)(O)C(NC)[C@H]3O)C2O)O1 (some centres undefined),-0.5%,-6.8%,-7.6%,-9.1%,-13.4%
C=CCOC(Cn1ccnc1)c1ccc(Cl)cc1Cl (centres undefined),-5.2%&-3.3%[201 µM],·,·,·,·

# Shown with values under each structure: 7 of the compounds above.
# Second line of a record: TexasRed fluor	Tau fibril FP	RECQ1 helicase	Tau fibril ThT	Tau fluor cs
CC[C@@H]1CN2CCc3cc(OC)c(OC)cc3[C@@H]2C[C@@H]1C[C@H]1NCCc2cc(OC)c(OC)cc21
→ 0.3%	-2.2%	2.3%	-0.1%	-0.9%
CCOC(=O)c1cncn1[C@@H](C)c1ccccc1
→ 0.1%[53 µM]	·	i	·	·
Clc1ccc(C(Cl)(Cl)Cl)c(Cl)c1
→ -2.3%	·	-11.1%	·	·
Cc1ccc(NC(=O)COC(=O)/C=C/c2ccco2)cc1S(=O)(=O)N(C)C
→ 4.5%	-9.6%	1.6%	?	?
CC[C@H]1CN2CCc3cc(OC)c(OC)cc3[C@@H]2C[C@@H]1C[C@H]1NCCc2cc(OC)c(OC)cc21
→ -2.0%&-0.9%	-7.0%&-3.7%	21.2%&2.4%	-9.2%&-6.1%	-9.4%&-5.8%
CNC(C)C1CC[C@H](N)[C@@H](OC2C(N)C[C@H](N)[C@@H](OC3OC[C@](C)(O)C(NC)[C@H]3O)C2O)O1 (some centres undefined)
→ -0.5%	-6.8%	-7.6%	-9.1%	-13.4%
C=CCOC(Cn1ccnc1)c1ccc(Cl)cc1Cl (centres undefined)
→ -5.2%&-3.3%[201 µM]	·	·	·	·

# Assay outcomes: PubChem, National Center for Advancing Translational Sciences (NCATS)
